# Compound activity deposited in PubChem by National Center for Advancing Translational Sciences (NCATS).
# miR-21 FLuc – raises the signal of a miR-21 reporter | HeLa miR-21 FLuc reporter, luciferase, 48 h | Potency, µM (highest dose often 38.3 µM), inactives show top-dose reporter change, positive = more light | 340,000 tested, under 10 active | AID 2288; active = well fitted rising curve with a large enough effect; inconclusive = small, poorly fitted or top-dose-only effect; inactive = no such curve, though single readings can be large or run the other way;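 further: % of control where 0% means no effect; miR-21 action dims this reporter so a rising signal means less miR-21 action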
#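 HeLa cells endogenously expressing miR-21, stably carrying CMV-driven firefly luciferase with a downstream miR-21 binding site, 2000 cells/well. Titrations up to approximately 40 uM, 48 hours; luciferase luminescence read.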
# GLA inh pH 4.5 – blocks human alpha-galactosidase A at pH 4.5. P06280. purified enzyme, 4-MU-alpha-Gal fluorescence, pH 4.5. activity change, negative = inhibition, % at 105 µM. 230,000 tested, under 10 active; inconclusive = small, poorly fitted or top-dose-only inhibition, or a rising curve; inactive = flat fitted curve, though single readings scatter; no compound was filed as active;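 further: 0% = full activity with enzyme and -100% = basal without enzyme; dose as in the result columns while the protocol names 77 µM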
# Target sequence (P06280 whole entry, looked up): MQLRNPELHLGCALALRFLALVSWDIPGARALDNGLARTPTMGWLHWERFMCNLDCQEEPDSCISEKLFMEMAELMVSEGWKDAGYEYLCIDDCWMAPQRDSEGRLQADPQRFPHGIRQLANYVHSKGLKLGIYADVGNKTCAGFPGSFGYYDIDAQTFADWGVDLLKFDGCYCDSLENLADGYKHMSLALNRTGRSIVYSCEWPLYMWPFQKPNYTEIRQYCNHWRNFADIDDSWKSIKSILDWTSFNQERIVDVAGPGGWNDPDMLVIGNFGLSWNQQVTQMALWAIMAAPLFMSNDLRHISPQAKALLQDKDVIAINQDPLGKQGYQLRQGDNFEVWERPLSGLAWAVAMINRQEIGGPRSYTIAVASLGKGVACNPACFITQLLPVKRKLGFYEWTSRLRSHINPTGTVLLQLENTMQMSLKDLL
# Rango dissoc inh – prevents RanGTP from dissociating the Rango-importin beta complex. O95149+P62826. Biochemical FRET Rango-importin beta, RanGTP-induced dissociation. Potency, µM (titrated, usually from 46.1 µM), inactives show at the highest dose activity change, negative = inhibition. 340,000 tested, 0.071% active; active means falling FRET ratio curve, often poorly fitted, with flat reads before Ran was added; inconclusive means other falling curves, or compound fluorescence or quenching; inactive means flat or rising ratio curve;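 further: potency means the concentration at half of the fitted maximal effect; % of control where 0% means no effect; nearly all actives have a fitted effect of over 45% in size; -100% = wells without RanGTP and RCC1; the record marks most hits as doubtful in a second field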
#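 Rango FRET biosensor (snurportin-1 IBB flanked by N-terminal EYFP and C-terminal CFP10) at 0.1 uM, with 0.25 uM importin beta in PBS, 1mM DTT, 0.02% Tween-20, 0.1% BSA. 0.6 uM Ran, 2mM GTP and 0.2 uM RCC1 were then added for 45 min at room temperature. Inhibition read as loss of FRET rise.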
# Rango complex inh – prevents formation of the Rango-importin beta complex; Potency, µM (titrated, usually from 92.2 µM), without a hit: top-dose inhibition of complex formation; Q14974; 340,000 tested, 0.031% active; Rango CFP/YFP FRET sensor + importin beta, 45 min; AID 540263; active = rising FRET ratio curve, often small or poorly fitted; inconclusive = mostly compound fluorescence or quenching in the first reads; inactive = flat curves in all reads;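 further: potency means the concentration at half of the fitted maximal effect; 0% = DMSO wells and 100% = buffer wells lacking importin beta; nearly all actives have a fitted effect of over 15% in size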
#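 Inhibition scored from the CFP 486 nm/YFP 530 nm FRET ratio 45 min after adding 0.125 microM importin beta to 50 nM Rango biosensor preincubated 5 min with compound (room temperature, PBS with DTT, Tween-20, BSA). No-importin wells as positive control.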
# Active calls of the source: *; ? = inconclusive; . = not tested or not shown; [ ] = dose if it differs, or a comment. These rows are one share of the data (hit frequency here may not be typical).
# Sequence of screens – miR-21 FLuc | GLA inh pH 4.5 | Rango dissoc inh | Rango complex inh
Cc1noc(C)c1CSCC(=O)Nc1nc2ccc(S(C)(=O)=O)cc2s1
    . | . | 0% | -3.3%
NC(=O)c1cc(Cc2ccccc2)sc1NC(=O)c1ccco1
    -47% | -24 | -19% | ?
COc1ccc(CNC(=O)COC(=O)CCC(=O)c2cccs2)cc1
    -12% | 1 | 4% | 0.3%
O=C(CCN1C(=O)COc2ccccc21)NCCN1CCc2ccccc2C1
    -4% | -17 | 0% | 0.6%
CC(C)C[C@H](NC(=O)c1[nH]cnc1C(=O)N[C@@H](C)C(=O)OCc1ccccc1)C(=O)OC(C)(C)C
    5% | . | 0% | -1.3%
Cc1ccccc1NC(=S)c1ccc2ccccc2n1
    -61% | . | 9% | -0.4%
CC(=O)c1ccc(-c2ccc(C(=O)NCC(c3ccco3)N(C)C)o2)cc1 (stereo not given)
    . | . | -16% | 0.2%
O=C(O)c1ccccc1C(=O)NC1CCCc2ccccc21 (stereo not given)
    1% | . | -11% | 4.9%
O=C(c1oc(=O)c2ccccc2c1-c1ccccc1)N1CCN(C2CCCCC2)CC1
    -8% | -6 | -16% | -8.6%
Nc1cc(-c2ccc(Br)cc2)nc2cc(-c3ccccc3)nn12
    -30% | 3 | -17% | 5.1%
C=CCn1cnc2c(c1=O)c1nc3ccccc3nc1n2/N=C/c1cccc(OC)c1OC
    -4% | -11 | -12% | 4.1%
CC1CC(C)(C)NC(=S)N1CCC(=O)NCCc1ccc(Cl)cc1 (stereo not given)
    -5% | 1 | 16% | ?
COc1ccc(-c2ccc3oc(-c4ccsc4)cc3c2)cc1
    . | . | -3% | -0.2%
O=S(=O)(NC1CCCCC1Oc1ccccc1)c1ccc(Cl)cc1 (stereo not given)
    -7% | -7 | 6% | -0.1%
O=C(NCc1csc(-c2cccs2)n1)Nc1cccc(Cl)c1
    0% | 0 | 2% | -0.2%

# One compound at a time, from the list above. Values in the order: miR-21 FLuc | GLA inh pH 4.5 | Rango dissoc inh | Rango complex inh
# NC(=O)c1cc(Cc2ccccc2)sc1NC(=O)c1ccco1 is listed as -47% | -24 | -19% | ?
# CC(=O)c1ccc(-c2ccc(C(=O)NCC(c3ccco3)N(C)C)o2)cc1 (stereo not given) is listed as . | . | -16% | 0.2%

# The listing continues:
# Sequence of screens – miR-21 FLuc | GLA inh pH 4.5 | Rango dissoc inh | Rango complex inh
CCc1noc(C)c1C(=O)NNC(=O)COc1ccc(C)c(C)c1
    . | . | 8% | -6.3%
O=C(N/N=C/c1ccco1)c1cc(C2CC2)[nH]n1
    -57% | 4 | -11% | -3.7%
Cc1ccc(-c2nn(CCC(=O)NC(C)C)c(=O)c3ccccc23)cc1
    -1% | . | 6% | 4.7%
COC(=O)C(NC(=O)c1cccnc1Cl)C(C)C (stereo not given)
    1% | -2 | 2% | -2.9%
COc1cc(NC(=O)c2ccco2)ccc1NC(=O)C(C)C
    -18% | 5 | -3% | 0.9%
Cc1cc(C)c(-c2cc(NC(=O)CSc3n[nH]c(N)n3)n(-c3ccccc3)n2)cc1C
    4% | -13 | 30% | 1.4%
C#CC(C)(C)NC(=S)NC1CC2C=CC1C2 (stereo not given)
    -1% | -5 | 4% | 0.3%
COc1ccccc1C(=O)NCCCN1CCCC1=O
    -1% | -4 | 0% | -2.7%
Cc1nnc2sc(SCC(=O)N3CCc4ccccc43)nn2c1=O
    . | . | -2% | 0.5%
CCOC(=O)N1CCC2(CC1)C(C#N)=C(N)Oc1n[nH]c(CSc3ccc(C)cc3)c12
    -2% | -8 | 2% | 1.1%
O=C(NCC(c1ccco1)N1CCCC1)c1cccc(S(=O)(=O)N2CCOCC2)c1 (stereo not given)
    . | . | -9% | 0.6%
CCN(CC(=O)Nc1c(F)cccc1F)C(=O)c1cccc(S(=O)(=O)N2CCc3ccccc3C2)c1
    . | . | -1% | 3.0%
CCOC(=O)C1=C(CCc2ccccc2)NC(=O)NC1c1ccc2ccccc2c1 (stereo not given)
    9% | . | 11% | 3.3%
Cc1ccc(NC(=O)COC(=O)c2ccco2)cc1
    0% | -1 | 15% | -3.7%
O=C(NCC1CCCO1)c1cnn2c1NC(c1ccccc1)CC2C(F)(F)F (stereo not given)
    -5% | -3 | 0% | 0.4%
Oc1ccc(-c2csc(Nc3ccccn3)n2)cc1O
    -69% | . | -13% | -3.3%
CCOc1ccc2nc(SCC(=O)Nc3ccc4c(c3)OCO4)sc2c1
    -6% | 4 | 0% | 1.2%
COc1ccc(Cn2c(=O)[nH]c3cc(C(=O)NCc4ccc5c(c4)OCO5)ccc3c2=O)cc1
    . | . | 2% | -2.4%
Cc1ccc(OCC(COCc2ccccc2)NC(C)C)cc1 (stereo not given)
    . | . | 7% | ?
CC1Cc2cc(-c3csc(N)n3)ccc2O1 (stereo not given)
    -55% | . | -10% | 9.8%
CC(=O)O[C@H]1CC(=O)OC(C)(C)C2CC(=O)[C@]3(C)C(CC[C@@](C)([C@@H](O[C@@H]4O[C@H](CO)[C@@H](O)[C@H](O)[C@H]4O)c4ccoc4)[C@@]34O[C@@H]4C(=O)O)[C@]21C (stereo not given in full)
    . | . | 9% | -2.7%
CC(=O)Nc1cccc2c1Cc1cc([N+](=O)[O-])ccc1-2
    . | . | -10% | -1.3%
CC(C)Sc1ncnc2c1cnn2-c1ccccc1
    -67% | . | 7% | -0.8%
CN(C)c1ccc(S(=O)(=O)N(C)C)cc1[N+](=O)[O-]
    -7% | 1 | 0% | -0.1%
CC(C)[C@H](Nc1ncnc2c1oc1ccccc12)C(=O)O
    -11% | 1 | -6% | 2.9%
COc1ccc(CNC(=O)CN2C(=O)c3ccc([N+](=O)[O-])cc3C2=O)cc1
    3% | . | -4% | -1.0%
CCOC(=O)c1c(C)oc2c1c(C(c1cccnc1)N1CCCCC1)c(O)c1ccccc12 (stereo not given)
    -57% | -1 | 5% | -2.5%
CN(C(=O)c1ccccn1)c1nnc(-c2ccccn2)s1
    -37% | 5 | 7% | -1.1%
Cc1ccc(/C=C2\CCC3=C2OC(N)=C(C#N)C3c2ccc(C)cc2)cc1 (stereo not given)
    -2% | 9 | ? | ?
O=S(=O)(c1ccc(Cl)s1)N1CCN(Cc2ccccc2)CC1
    -10% | -4 | 35% | 7.4%

# Reformatted in CSV form: part of the list above
SMILES,miR-21 FLuc,GLA inh pH 4.5,Rango dissoc inh,Rango complex inh
CN(C(=O)c1ccccn1)c1nnc(-c2ccccn2)s1,-37%,5,7%,-1.1%
Cc1ccc(/C=C2\CCC3=C2OC(N)=C(C#N)C3c2ccc(C)cc2)cc1 (stereo not given),-2%,9,?,?

# Random excerpt: three records from the list
# Sequence of screens – miR-21 FLuc | GLA inh pH 4.5 | Rango dissoc inh | Rango complex inh
CC(=O)Nc1cccc2c1Cc1cc([N+](=O)[O-])ccc1-2
    . | . | -10% | -1.3%
COc1ccc(Cn2c(=O)[nH]c3cc(C(=O)NCc4ccc5c(c4)OCO5)ccc3c2=O)cc1
    . | . | 2% | -2.4%
CC(=O)O[C@H]1CC(=O)OC(C)(C)C2CC(=O)[C@]3(C)C(CC[C@@](C)([C@@H](O[C@@H]4O[C@H](CO)[C@@H](O)[C@H](O)[C@H]4O)c4ccoc4)[C@@]34O[C@@H]4C(=O)O)[C@]21C (stereo not given in full)
    . | . | 9% | -2.7%

# (more compounds)
# Sequence of screens – miR-21 FLuc | GLA inh pH 4.5 | Rango dissoc inh | Rango complex inh
COC(=O)C1(C)CC1(c1ccccc1)c1ccccc1 (stereo not given)
    2% | . | 18% | -0.3%
CN(Cc1ccccc1)C(=O)Cn1c(=O)oc2cc(S(=O)(=O)NCc3ccccc3)ccc21
    28% | -2 | -7% | -3.0%
O=C(O)c1ccc(N=NNc2cccc([N+](=O)[O-])c2)cc1
    -96% | -1 | -2% | -0.2%
Cc1ccc(S(=O)(=O)N2CCCCC2CCNC(=O)C(=O)NCc2ccncc2)cc1 (stereo not given)
    . | . | 18% | -1.4%
c1ccc(-n2cccc2CNC2CCCCC2)cc1
    -4% | -6 | -9% | -1.9%
COc1ccccc1C(=O)NCC(=O)NCc1cc(=O)n(C)c(=O)n1C
    0% | . | -1% | 0.8%
Cc1ccsc1/C=C1\CCc2ccccc2C1=O
    16% | -7 | 4% | -1.8%
Cc1nn(C)c(Oc2cccc(Cl)c2)c1C=O
    -7% | 3 | 7% | 0.9%
C/C(=C\C(=O)c1ccccc1)NNc1nc2ccccc2s1
    -28% | 2 | 1% | -1.0%
Cc1cccn2c(=O)c3cc(C(=O)NCc4ccco4)c(=N)n(C4CCCCC4)c3nc12
    -9% | . | ? | ?
CC(C)C(=O)Nc1cccc(NC(=S)NC(=O)c2ccc([N+](=O)[O-])cc2)c1
    -5% | -13 | -5% | 0.9%
O=C(c1ccccc1)c1cc(Cl)ccc1N1C(=O)C=CC1=O
    ? | 5 | 0% | -0.6%
NC(=S)Nc1cc2ccccc2c2ccccc12
    17% | -20 | -6% | 4.0%
CCOc1cc(CNC2CCCC2)c(Cl)cc1OCC(=O)Nc1ccccc1
    3% | -14 | 19% | -0.2%
COc1ccc(NC(=O)CSc2ccc3nnc(-c4cccnc4)n3n2)c(OC)c1
    -8% | 8 | -1% | -0.2%
Cc1cc(C(=O)Nc2ccccc2N2CCOCC2)no1
    . | . | -9% | 2.9%
CCOc1ccc(-c2nc(S(=O)(=O)c3ccccc3)c(NC)o2)cc1
    -2% | . | 12% | -0.3%
O=S(=O)(c1ccc(-c2csc(-c3cccnc3)n2)cc1)N1CCCC1
    -7% | 1 | 0% | -11%
Cc1n[nH]c(C)c1S(=O)(=O)N1CCCC(C(=O)NCc2ccc(F)cc2)C1 (stereo not given)
    0% | 4[21.1 µM] | -3% | 4.7%
Cc1ccc(N2C(=O)N(Cc3ccccc3C)c3ccccc3S2(=O)=O)cc1
    -10% | -8 | 17% | 2.1%
O=C1c2ccc([N+](=O)[O-])cc2C(=O)N1c1ccc(Cl)cn1
    0% | -14 | 34% | 7.4%
CC(C)(C)OC(=O)N1CCN(C(=O)c2[nH]cnc2C(=O)NCC(=O)OCc2ccccc2)CC1
    -1% | . | 5% | -0.3%
O=C(O)CSc1nnc(-c2ccccc2)c(-c2ccccc2)n1
    -3% | -1 | -3% | 3.2%
CC1(C)NC(=O)N(CC(O)CN(Cc2ccccc2)Cc2ccccc2)C1=O (stereo not given)
    3% | -3 | 16% | -0.5%
Cc1ncc(CN2CCC(n3nccc3NC(=O)c3ccccc3)CC2)s1
    -2% | . | 0% | 2.2%
CCN(CC)S(=O)(=O)c1ccc(N2CCOCC2)c(NC(=O)Cc2ccccc2)c1
    -7% | -6 | 1% | 3.7%
O=S(=O)(c1ccc(F)c(F)c1)N1CCN(Cc2ccc3c(c2)OCO3)CC1
    -11% | -1 | 3% | 2.5%
Cc1ccccc1Cn1cc(NC(=O)c2nc3ncccn3n2)cn1
    -31% | -1 | -12% | 3.8%
CCN1CCCC1CNC(=O)c1c(O)c2c([nH]c1=O)CCCC2 (stereo not given)
    -1% | -1 | 11% | 3.8%
CCCSc1nnc2n(Cc3ccccc3)c(=O)c3c4c(sc3n12)CCC4
    2% | 12 | . | .
Cc1ccc(-c2nnc(CSc3nnc4c5c(C)c(C)sc5nc(C(C)C)n34)o2)cc1
    -1% | -18 | . | .
O=C(Cc1ccon1)c1ccc(O)cc1O
    -5% | . | -1% | 7.9%
Cc1sc(NC(=O)c2ccccc2)c(C(=O)NCCN(C)C)c1C
    -6% | 11 | -3% | 1.5%
O=C(CN1C(=O)c2ccccc2C1=O)NCc1ccc(C(=O)O)cc1
    2% | . | 4% | 0.5%
Oc1ccccc1-c1nc(NCc2ccccc2)c2ccccc2n1
    -2% | . | -6% | ?
O=c1c([N+](=O)[O-])c(N2CCCC2)c2ccccc2n1-c1ccccc1
    -1% | -6 | 1% | -1.7%
CC(Cc1cccs1)NC(=O)Nc1ccc(Cl)cc1 (stereo not given)
    -15% | 1 | -6% | 0.4%
Cc1ccc(NC(=O)CSc2nnc(CNC(=O)c3ccco3)n2C)cc1
    . | . | -22% | -6.7%
CCOC(=O)[C@@H]1[C@H]2COc3ccc(Br)cc3[C@H]2N2C(=O)N(c3ccc(C(F)(F)F)cc3)C(=O)[C@]12C
    . | . | 15% | 0.7%
